# Screening data from PubChem BioAssay.
# ClpP mod – qHTS Assay for Activators of ClpP; ATP-dependent Clp protease proteolytic subunit (Bacillus subtilis (strain 168)), P80244; 340,000 tested, 1.9% active; purified B. subtilis ClpP, FRET peptide cleavage, 20 min; Potency, µM (doses to about 57.5 µM), for the others: at the highest dose activity change, negative = active; active = well fitted falling curve with a large enough effect; inconclusive = small, poorly fitted or top-dose-only effect; inactive = no such curve, though single readings can be large or run the other way; further: potency means the concentration at half of the fitted maximal effect; the source files actives as falling curves though it sought activators and does not explain the sign; nearly all actives have a fitted effect of over 65% in size; many hits overshoot -100%
# Target sequence (P80244 whole entry, looked up): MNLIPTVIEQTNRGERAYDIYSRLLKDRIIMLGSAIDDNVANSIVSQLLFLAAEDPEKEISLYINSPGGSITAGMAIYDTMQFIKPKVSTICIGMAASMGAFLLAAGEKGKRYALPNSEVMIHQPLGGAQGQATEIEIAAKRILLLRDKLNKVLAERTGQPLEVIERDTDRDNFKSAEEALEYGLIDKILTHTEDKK
#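 FRET quenching reversal measured ClpP activation: 10 microg/mL B. subtilis ClpP at pH 8 with the FRET-FV decapeptide, read at 430 nm after 320 nm excitation. The 20-min minus 0-min signal was scaled between DMSO/no-enzyme wells and ADEP (5.8 microM final).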
# TRPML1 blocker – qHTS for Inhibitors of the Human Mucolipin Transient Receptor Potential 1 (TRPML1); activity change, negative = inhibition, % (no concentration beside the values); TRPML1-inducible cells, Ca2+ dye fluorescence, FDSS; hits give low values; inhibition of EC80 agonist-evoked calcium signal; 390,000 tested, 0.02% active; AID 624415, 2012; in the data active means activity change below about -50%; inconclusive means about -30% to -50%; inactive means above about -30%;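 further: stimulus is agonist 54-4 at its EC80 concentration; on the % scale 0 is the no-effect control and ±100 the full control effect; compound concentration not given in the record; the text of the record puts the active cut at -80%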
# Target sequence (Q9GZU1 whole entry, looked up): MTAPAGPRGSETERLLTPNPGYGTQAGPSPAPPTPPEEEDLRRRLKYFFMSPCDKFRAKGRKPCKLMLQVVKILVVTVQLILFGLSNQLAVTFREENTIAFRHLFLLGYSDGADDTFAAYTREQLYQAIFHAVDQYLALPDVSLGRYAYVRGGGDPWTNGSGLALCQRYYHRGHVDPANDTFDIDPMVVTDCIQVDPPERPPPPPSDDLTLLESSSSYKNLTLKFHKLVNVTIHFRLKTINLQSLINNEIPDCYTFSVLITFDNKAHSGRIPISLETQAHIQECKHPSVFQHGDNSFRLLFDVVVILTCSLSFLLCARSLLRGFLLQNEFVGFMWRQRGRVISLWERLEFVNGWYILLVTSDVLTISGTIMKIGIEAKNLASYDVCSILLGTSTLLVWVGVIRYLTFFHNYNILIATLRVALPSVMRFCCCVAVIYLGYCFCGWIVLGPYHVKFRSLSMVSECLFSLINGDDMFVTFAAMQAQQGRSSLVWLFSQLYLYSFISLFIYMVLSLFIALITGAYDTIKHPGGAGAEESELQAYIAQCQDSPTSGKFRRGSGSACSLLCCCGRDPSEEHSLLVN
#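 Calcium fluorescence in TRPML1-DL cells induced overnight with Tet: a 110 s read after compound pin addition, then a 110 s antagonist read after challenge with 54-4 at 4 uM final (EC80).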
# Active calls of the source: *; ? = inconclusive. Not all compounds are listed. The share of hits here may be higher or lower than overall.
SMILES,ClpP mod,TRPML1 blocker
CCCCOc1cccc(C2c3c(oc4ccccc4c3=O)C(=O)N2c2ccccn2)c1 (stereo not drawn),-2.1%,-11
CCC(=O)N1CCc2cc(CNS(=O)(=O)c3ccc(Cl)s3)ccc21,-2.1%,-6
COC(=O)c1ccc(OC)c(CN2C(=O)N(c3ccc(C(C)=O)cc3)S(=O)(=O)c3ccccc32)c1,1.4%,13
Cc1nn(-c2ccc3nnc(C)n3n2)c(C)c1CCC(=O)Nc1ccc(OC(F)(F)F)cc1,2.7%,-23
CCOc1ccc(CNC(=O)c2ccc3c(c2)nc2n3CCOC2)cc1OC,-1.8%,-23
CCc1ccccc1NC(=O)CN1C(=O)C2CCCN2c2ccc(S(=O)(=O)N(CC)CC)cc21 (stereo not drawn),-3.9%,-4
Cc1ccccc1-c1nc(SCC(=O)N(C)c2ccccc2)c2c(=O)n(C)c(=O)n(C)c2n1,-0.6%,-15
Cc1ccc2c(c1)c1c(c(=O)n(-c3ccccc3C)c(=O)n1Cc1cccc(F)c1)n2C,4.0%,-4
COc1ccc(CCNC(=O)C(=O)Nc2ccc(C)c(C)c2)cc1OC,-2.9%,1
CC(C)CNc1ncnc2c1ncn2[C@H]1CN(Cc2ccco2)C[C@@H](CO)O1,-1.9%,-7
CCCCc1cc(=O)oc2cc(C)c3c(C)coc3c12,28µM*,2
CCOC(=O)C1=CCN(S(=O)(=O)c2ccc(C)cc2)C1c1ccccc1 (stereo not drawn),-1.5%,-13
COc1cc(C(CC(=O)NCCC(C)C)N2Cc3ccccc3C2=O)cc(OC)c1OC (stereo not drawn),0.5%,-15
Cc1ccc(C)c(N2CCN(C(=O)CCS(=O)(=O)c3ccc4c(c3)CC(=O)N4C)CC2)c1,-0.9%,-24
O=C(Cn1c(=O)c2cccn2c2cccnc21)NCc1ccccc1F,4.4%,-3
Nc1nc2c(ncn2[C@@H]2O[C@H](CNC(=O)[C@H](N)Cc3ccccc3)[C@@H](O)[C@H]2O)c(=O)[nH]1,0.6%,-4
Cc1ccc2oc(C(=O)Nc3cccc(Cl)c3)cc(=O)c2c1,-13%,-8
CCOC(=O)c1cccc(NC(=O)CCCn2c(C)c3cnn(-c4ccccc4)c(=O)c3c2C)c1,-1.3%,-10
CCOCCCNC(=O)NC(CCC(C)C)c1c(-n2cccc2)sc2c1CCN(C)C2 (stereo not drawn),4.1%,-27
Cc1ccc(Nc2nc3c(S(=O)(=O)c4ccccc4)nnn3c3ccsc23)c(C)c1,-1.0%,6
COc1cc(C2c3c(-c4ccccc4O)n[nH]c3C(=O)N2Cc2ccncc2)ccc1O (stereo not drawn),1.2%,-21
Cc1ccccc1-c1nc(CN2CCCC(C(=O)NCc3ccc(Cl)cc3)C2)c(C)o1 (stereo not drawn),1.6%,8
Cc1ccnc(NS(=O)(=O)c2cc(-c3cc(C)no3)ccc2C)c1,-27%,-23
COc1ccc(C(=O)NCCn2cc(SCc3cc(C)ccc3C)c3ccccc32)cc1,-1.8%,-1
CCOc1ccc(Nc2oc(-c3ccc(COc4ccc(C)cc4)o3)nc2C#N)cc1,49%,-19

# Reprinted at random: five records from the list, in no set order.
SMILES,ClpP mod,TRPML1 blocker
Cc1ccc(C)c(N2CCN(C(=O)CCS(=O)(=O)c3ccc4c(c3)CC(=O)N4C)CC2)c1,-0.9%,-24
CCC(=O)N1CCc2cc(CNS(=O)(=O)c3ccc(Cl)s3)ccc21,-2.1%,-6
COc1ccc(C(=O)NCCn2cc(SCc3cc(C)ccc3C)c3ccccc32)cc1,-1.8%,-1
COc1ccc(CCNC(=O)C(=O)Nc2ccc(C)c(C)c2)cc1OC,-2.9%,1
Cc1ccccc1-c1nc(CN2CCCC(C(=O)NCc3ccc(Cl)cc3)C2)c(C)o1 (stereo not drawn),1.6%,8

# The results go on:
SMILES,ClpP mod,TRPML1 blocker
Cc1ccc(S(=O)Cc2ccc(C(=O)NC3CCCCCC3)o2)cc1 (stereo not drawn),0.6%,-11
Cc1ccc(Nc2nc(C)c(NC(=O)c3ccc(C)cc3)c(Nc3ccc(C)cc3)n2)cc1,-3.0%,68
CCOc1ccccc1NC(=O)Cn1cc(C(=O)c2cccc(OC)c2)c(=O)c2ccc(C)nc21,-3.3%,-10
COc1cc(Cl)c(C)cc1Nc1nc2ccccc2nc1NS(=O)(=O)c1ccccc1,-17%,1
CC1CCN(Cc2c(O)ccc3c(=O)c(Oc4ccccc4Cl)c(C(F)(F)F)oc23)CC1,2.0%,-8
COc1ccc(NCc2cc3cc4c(cc3n(CC(=O)Nc3ccc(C)cc3)c2=O)OCO4)cc1,13%,2
CCCCNC(=O)Cn1c(=O)cc(C)c2c(C)nn(-c3ccc(CC)cc3)c21,-11%,-3
Cc1cccc(C(=O)Nc2cc3c(cc2N2CCCCC2)n(C)c(=O)n3C)c1,-3.7%,-21
CCOC(=O)C1=C[C@@H](C(C)C)N(S(=O)(=O)c2ccc(C)cc2)[C@H]1c1ccc(C(C)C)cc1,-1.6%,1
COc1cc(CN(C(=O)c2ccc(Cl)cc2)C2CCS(=O)(=O)C2)cc(OC)c1OC (stereo not drawn),1.5%,4
COc1ccc(NC(=O)c2c(C)oc3ccc(O)c(CN4CCC(C)CC4)c23)cc1,-2.8%,3
Cc1c(Cl)cccc1N1CC(c2nc3ccccc3n2Cc2ccccc2F)CC1=O (stereo not drawn),-0.1%,54
Cc1ccc(C)c(CN2C(=O)c3ccccc3S(=O)(=O)c3ccc(C(=O)N4CCN(c5ccccc5F)CC4)cc32)c1,0.8%,-7
COc1cc(NC(=O)CNS(=O)(=O)c2cccs2)cc(OC)c1OC,-0.4%,0
Cc1cc(NC(=O)C(C)C)cc(-c2nc3ncccc3o2)c1O,2.4%,-1
CC1C(=O)N(Cc2cn(Cc3ccco3)nn2)CCS(=O)(=O)N1Cc1ccc(-c2ccccc2C(F)(F)F)cc1 (stereo not drawn),-1.5%,27
Cc1ccc(C)c(NC(=O)Cn2c(=O)n(CCCS(=O)(=O)C3CCCCC3)c(=O)c3ccccc32)c1,-6.8%,2
COc1ccccc1N1CCN(C(=O)C2CCN(S(=O)(=O)c3cccc4nonc34)CC2)CC1,-1.9%,16
CC1CCCCN1CCCNC(=O)Cn1ncc2c3ccccc3n(C)c2c1=O (stereo not drawn),5.0%,9
COc1ccc(-c2ccc(NS(=O)(=O)c3ccccc3)cc2)nn1,-2.4%,2
Cc1oc2c(c1C(=O)Nc1ccc(OC(F)(F)F)cc1)C1=NCCN1C=N2,-0.2%,-4
CCOC(=O)c1c(C)[nH]c(C)c1S(=O)(=O)N1CCN(c2cc(Cl)ccc2C)CC1,-3.0%,25
COc1ccccc1-c1nc(SCC(=O)c2ccc(Cl)cc2)n[nH]1,-1.3%,-13
CCOc1ccc(Nc2cc(C(=O)NCc3ccccc3Cl)c3ccccc3n2)cc1,5.0%,23
Cc1nc2ccn(Cc3cccs3)c(=O)c2cc1C(=O)NCc1ccc(Cl)cc1,4.8%,21
# (further entries)
SMILES,ClpP mod,TRPML1 blocker
Cc1cc(C)cc(OCCSc2nc(-c3ccc(C(C)(C)C)cc3)nc3cc(=O)[nH]n23)c1,-4.3%,-15
O=C(NCc1ccccc1Cl)C1CCN(S(=O)(=O)Cc2ccccc2)CC1,-2.1%,-6
CCOc1ccccc1Nc1nnc(-c2cc3cc(Cl)ccc3oc2=O)s1,0.8%,-4
COC(=O)CSCc1nc(-c2ccc(C(=O)OC)cc2)oc1C,3.8%,-13
CCCCN1C(=O)c2[nH]nc(-c3ccccc3O)c2C1c1cccc(OCc2ccccc2)c1 (stereo not drawn),-3.2%,2
O=S(=O)(NCCc1ccccc1)c1ccc(N2CCCCS2(=O)=O)cc1,-8.5%,-1
O=C(NCCc1csc(-c2ccc(C(F)(F)F)cc2)n1)c1ccc(F)c(F)c1,-2.8%,2
CCN(CC)CCNC(=O)Cn1nc(C)c2c(C)n(-c3ccccc3)nc2c1=O,-8.6%,17
CCc1nc2c(OCc3ccc(S(C)(=O)=O)cc3)cccn2c1N(C)C(=O)c1ccccc1F,-5.7%,24
O=C(Nc1ccc(C(=O)OCc2cc(=O)n3nc(C4CC4)sc3n2)cc1)c1ccccc1,-4.5%,3
CCOC(=O)c1c(NC(=O)CSc2cn(CCNC(=O)c3ccc(OC)cc3)c3ccccc23)sc2c1CCCC2,-7.9%,14
CC(C)NC(=O)c1cc(C2CCCCN2C(=O)OCCF)on1 (stereo not drawn),1.6%,21
N#Cc1c(-n2ncnc2-c2ccc(Br)cc2)sc2c1CCCCC2,-1.3%,30
O=C(CSc1n[nH]c(-c2ccccc2)n1)N1CCN(c2ccccc2F)CC1,-2.3%,7
COc1ccc(NC(=O)CSc2nnc(NC(=O)NC3CCCCC3)s2)cc1OC,1.0%,4
CCOCCCN(Cc1ccco1)C(=O)c1cc2c(s1)-c1c(C)cccc1OC2,3.6%,10
COc1ccc(-c2nnc(SCC(=O)Oc3cc(C)ccc3C)o2)cc1,-3.0%,16
CCOc1cc(CNCCSc2nnnn2C)ccc1OCc1ccc(Cl)cc1Cl,-0.3%,-18
Cc1cc(C(=O)C(=O)Nc2nncs2)c(C)n1-c1ccc(Cl)cc1,-3.5%,-4
Cc1cc(N)c(-n2cc3c(c2-c2ccc(Br)cc2)c(=O)n(C)c(=O)n3C)cc1C,-20%,-7
COc1cccc(NC(=O)CSc2ncc(S(=O)(=O)c3ccc(C)c(C)c3)c(=O)[nH]2)c1,-1.9%,1
O=C(c1ccc2c(c1)N(Cc1ccc(F)cc1)C(=O)c1ccccc1S2(=O)=O)N1CCCCCC1,-1.3%,5
CCOc1ccc(-c2nnc(SCC(=O)Nc3ccc(C)cc3C)o2)cc1,2.3%,0
Cc1ccc(F)cc1NC(=O)CCc1c(C)nn(-c2ccc(N3CCOCC3)nn2)c1C,-8.0%,-6
CCn1c(=O)n(CC)c2cc(N3CCCCC3)c(NC(=O)Nc3ccccc3Cl)cc21,?,-7

# Record cards (already shown). Order of screens: ClpP mod	TRPML1 blocker
# O=C(NCCc1csc(-c2ccc(C(F)(F)F)cc2)n1)c1ccc(F)c(F)c1 is listed with -2.8%	2
# CCOCCCN(Cc1ccco1)C(=O)c1cc2c(s1)-c1c(C)cccc1OC2 is listed with 3.6%	10
# O=C(Nc1ccc(C(=O)OCc2cc(=O)n3nc(C4CC4)sc3n2)cc1)c1ccccc1 is listed with -4.5%	3
# CCCCN1C(=O)c2[nH]nc(-c3ccccc3O)c2C1c1cccc(OCc2ccccc2)c1 (stereo not drawn) is listed with -3.2%	2
# N#Cc1c(-n2ncnc2-c2ccc(Br)cc2)sc2c1CCCCC2 is listed with -1.3%	30

# (continued)
SMILES,ClpP mod,TRPML1 blocker
CCOC(=O)c1ccc(NC(=O)C(C)N(c2ccc(OCC)cc2)S(C)(=O)=O)cc1 (stereo not drawn),0.8%,3
CCCOc1cccc(C(=O)Nc2cc(-c3ccccc3)no2)c1,-5.1%,-18
Cc1ccc(NC(=O)Cn2c(=O)nc(-c3ccccc3)c3ccccc32)cc1F,-2.4%,30
Cc1ccc(NC(=O)Cn2c(=O)ccc3cc(S(=O)(=O)N4CCCC4)ccc32)cc1C,0.1%,10
CC1CCCCN1CCCNC(=O)c1[nH]c2ccccc2c1Sc1ccc(Cl)cc1 (stereo not drawn),-1.0%,1
Cc1ccc(NC(=O)CCn2c(=O)c3cccn3c3ccccc32)c(Cl)c1,11%,11
CCOC(=O)c1sc2ncn(CC(=O)Nc3ccc(F)cc3F)c(=O)c2c1C,6.9%,7
CN(C(=O)CSc1nc2ccc(NC(=O)CCc3ccccc3)cc2s1)c1ccccc1,-7.6%,11
CCN(CC)S(=O)(=O)c1nnc(NC(=O)COc2ccccc2Cl)s1,-0.6%,0
Cc1cc(NC(=O)Cc2ccccc2)cc(-c2nc3ccccc3o2)c1O,0.2%,3
CS(=O)(=O)c1ccc(-c2cc(NC=O)c3ncc(-c4ccc(F)cc4)n3c2)cc1,?,-12
Cc1ccc(C)c(N2CCN(C(=O)C3CCCN(Cc4nc(-c5cccc(Cl)c5)oc4C)C3)CC2)c1 (stereo not drawn),2.8%,-12
CCOC(=O)c1ccc2c(c1)N(CC(=O)Nc1cc(F)ccc1F)C(=O)c1ccccc1S2,3.0%,10
CCOC(=O)c1c(C)oc2nc(C)nc(NCCCN3CCN(c4ccc(F)cc4)CC3)c12,-4.1%,-2
COc1cc(OC)cc(C(=O)NCCc2csc(-c3cccc(C)c3)n2)c1,-15%,39
CCc1c(C)sc2c1CCN(Cc1cccc(OC)c1)C2c1ccccc1 (stereo not drawn),0.7%,7
CC(C)CN(CCNC(=O)c1cc(-c2cccs2)nc2ccccc12)CC(C)C,4.2%,51
CCc1ccccc1NC(=O)CC(c1ccc(F)cc1)N1Cc2ccccc2C1=O (stereo not drawn),2.5%,18
CCOc1ccc(CCNC(=O)c2cnc3c(-c4ccc(F)cc4)c(C)nn3c2C)cc1,-2.2%,?
COCCNC(=O)c1cc(Sc2ccc(F)cc2F)nc2ccccc12,-6.4%,-11
COc1ccc(C)cc1NS(=O)(=O)c1ccc2c(c1)[C@H]1C=CC[C@H]1[C@@H](c1cccc(Cl)c1)N2,-1.5%,10
Cc1ccc(NC(=O)C2CCCN(c3ncnc4onc(-c5ccc(F)cc5)c34)C2)c(Cl)c1 (stereo not drawn),-6.4%,3
COc1ccc(N2CC(NC(=O)c3ccc(S(=O)(=O)N4CCCCC4)cc3)CC2=O)cc1OC (stereo not drawn),-1.8%,0
